Source: PubChem
PV pol inh – poliovirus RNA polymerase inhibition; P03300; poliovirus polymerase elongation, fluorescence polarization; hits give low values; % elongation, % (compound at 16.7 µg/mL); 150,000 tested, 0.66% active; AID 588519; in the data active = % elongation below about 90%; also: some results filed as inactive read as strong as hits
Target sequence (P03300 1749-2209 limits assumed): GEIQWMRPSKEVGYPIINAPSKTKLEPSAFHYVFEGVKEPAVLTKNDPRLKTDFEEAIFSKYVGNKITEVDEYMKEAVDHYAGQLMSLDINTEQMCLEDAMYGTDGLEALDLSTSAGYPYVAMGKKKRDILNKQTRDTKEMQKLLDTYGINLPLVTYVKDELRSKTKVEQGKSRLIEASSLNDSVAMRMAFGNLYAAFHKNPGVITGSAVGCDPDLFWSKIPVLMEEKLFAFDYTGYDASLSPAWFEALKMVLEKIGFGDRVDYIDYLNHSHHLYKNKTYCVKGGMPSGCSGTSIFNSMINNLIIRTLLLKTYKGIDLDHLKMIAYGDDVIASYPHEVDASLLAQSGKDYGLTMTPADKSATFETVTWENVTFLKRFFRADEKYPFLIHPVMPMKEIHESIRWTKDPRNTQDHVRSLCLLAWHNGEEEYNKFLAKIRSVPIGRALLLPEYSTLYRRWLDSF
PV pol inh intensity – further read-out of PV pol inh, marked with its call; % elongation; measured here: total intensity read-out; formula for this scale not given here;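 total fluorescence in place of polarization; lower means less elongation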
Numbers without * were called inactive. A portion of the library; the hit share may differ from the screen's.

SMILES	PV pol inh	PV pol inh intensity
COc1ccc(N2C(=O)CSC23C(=O)N(CC(=O)Nc2ccccc2F)c2ccccc23)cc1 (centres undefined)	101	95
Cc1ccc(CN(Cc2ccco2)c2cnc(S(C)(=O)=O)nc2C(=O)Nc2ccccc2Br)o1	103	107
CCc1ccccc1NS(=O)(=O)c1ccc2[nH]cc(C(=O)N(CC)Cc3ccccc3)c(=O)c2c1	104	104
Cc1ccc(NC(=O)CC2Nc3cc(C)c(C)cc3NC2=O)c(C)c1 (centres undefined)	104	104
O=c1c(=O)n(-c2ccccc2)ccn1Cc1cccc(C(F)(F)F)c1	108	99
CCOc1ccc(C(=O)NCCc2sc(-c3ccc(C)cc3)nc2C)cc1	108	105
CCCCNC(=O)CN1C(=O)c2cccnc2Sc2ccccc21	118	117
CNC(=O)COc1ccc(NC(=O)c2ccc(-c3nn(C)c(=O)c4ccccc34)cc2)cc1	107	111
Cc1nc2cccnc2n1C1CCN(S(C)(=O)=O)CC1	104	108
COc1ccc(Cl)cc1NC(=O)CSc1nc(=O)n(Cc2ccco2)c2c1CCC2	109	107
COc1cn(CC(=O)Nc2ccccc2)c(CN2CCCCC2)cc1=O	111	106
Cc1ccc(-n2nc3c(N4CCCC(C(=O)NCc5ccccc5C)C4)nnc(C)c3c2C)cc1 (centres undefined)	109	108
O=C(Cn1cc(SCc2cccc(Cl)c2)c2ccccc21)N1CCOCC1	84	85
CC(=O)c1ccc(NC(=O)COCc2cc(-c3ccco3)on2)cc1	112	102
CCCCN(CC)C(=O)c1nn(C)c2c1CSc1ccccc1-2	114	95
CCC(=O)N1CCc2cc(S(=O)(=O)NC(C(=O)Nc3ccc(C(C)=O)cc3)C(C)C)ccc21 (centres undefined)	106	109
COc1ccc(C(=O)CCC(=O)Nc2ccc(OC)c(Cl)c2)cc1	115	125
Cc1oc2ccc(O)c(CN3CCN(C)CC3)c2c1C(=O)Nc1ccc(C(C)C)cc1	105	97
CC1CN(S(=O)(=O)c2ccc3c(c2)NC(=O)CC(=O)N3)c2ccccc2O1 (centres undefined)	105	111
COc1cccc(CNS(=O)(=O)c2cnc(N)nc2)c1	107	117
Cc1ccc(Cl)cc1Nc1nn2c(=O)c3ccc(C(=O)Nc4ccc(F)cc4)cc3nc2s1	110	105
Cc1cccc(C(=O)NCc2nc3ccccc3n2Cc2ccccc2Cl)c1	107	112
CCOc1ccc(NC(=O)CSc2nc3ccsc3c(=O)n2CCC(C)C)cc1	103	106
CCOc1ccc(Nc2c(S(=O)(=O)c3ccccc3)cnc3ccc(F)cc23)cc1	105	104
CCOc1ccc(C(=O)Nc2ccc3oc(-c4ccc5ccccc5c4)nc3c2)cc1	105	110

In the list so far, 4 have a furan ring, fused or not:
SMILES	PV pol inh	PV pol inh intensity
Cc1ccc(CN(Cc2ccco2)c2cnc(S(C)(=O)=O)nc2C(=O)Nc2ccccc2Br)o1	103	107
COc1ccc(Cl)cc1NC(=O)CSc1nc(=O)n(Cc2ccco2)c2c1CCC2	109	107
CC(=O)c1ccc(NC(=O)COCc2cc(-c3ccco3)on2)cc1	112	102
Cc1oc2ccc(O)c(CN3CCN(C)CC3)c2c1C(=O)Nc1ccc(C(C)C)cc1	105	97

More compounds follow.
SMILES	PV pol inh	PV pol inh intensity
Fc1ccc(-c2noc3ncnc(NC4CCCCC4)c23)cc1	100	107
COc1cccc(C(=O)Nc2cccc(C(=O)OCc3cc(=O)n4nc(C(C)C)sc4n3)c2)c1	107	114
O=C(NCC(c1cccs1)S(=O)(=O)c1cccs1)c1ccc(C(F)(F)F)cc1 (centres undefined)	107	111
CCOc1ccc2nc(N3CCN(C(=O)C(C)C)CC3)sc2c1	108	112
CCn1cc(C(=O)NCc2ccccc2Cl)c(=O)c2cc(S(=O)(=O)N3CCOCC3)ccc21	101	103
O=C(Cn1cnc2c(oc3ccccc32)c1=O)Nc1ccccc1C(F)(F)F	113	115
CCC1CCCCN1S(=O)(=O)c1ccc(N2CCCCS2(=O)=O)cc1 (centres undefined)	102	110
Cc1ccc(CSC2=Nc3ccccc3C3=NC(CCC(=O)N4CCN(c5ccccc5)CC4)C(=O)N23)cc1 (centres undefined)	112	114
CCOc1ccc(CCNC(=O)CSc2nnnn2-c2ccc(C)cc2C)cc1OCC	107	108
O=C(Nc1ccc2nc(SCc3ccccc3)sc2c1)c1ccccc1F	110	100
CCOc1ccc(C(=O)c2cn(CC(=O)Nc3ccc(F)c(F)c3)c3cc4c(cc3c2=O)OCCO4)cc1	108	111
O=C(Cn1ccc2cc(S(=O)(=O)N3CCCCC3)ccc21)NCc1cccc(Cl)c1	99	92
Clc1ccc(N2CCN(Cc3nnc(-c4ccc5c(c4)OCO5)o3)CC2)cc1	111	115
Cc1ccc(C)c(Cn2c3ccccc3c3cnn(CC(=O)NC4CCCCCC4)c(=O)c32)c1	106	108
COc1cc(Cl)c(C)cc1NC(=O)c1c(C)oc2nc(C)nc(N3CCCC3)c12	116	108
O=C(Nc1ccccc1C(F)(F)F)c1cc2ccccn2n1	109	111
COC(=O)c1cc2occc2n1Cc1ccc(F)cc1Cl	106	108
COc1ccccc1CNC(=O)Cc1c(C)c2c(cc(C)c3c(C)coc32)oc1=O	105	106
Cn1ncc2c(N3CCN(c4ccccc4Cl)CC3)ncnc21	103	97
CC(=O)c1nn(-c2ccc(OC(F)(F)F)cc2)nc1Nc1ccc(C)cc1	104	107
c1ccc(-c2noc(-c3cccnc3NCc3ccco3)n2)cc1	111	109
CC(=O)N1c2ccccc2C(=O)C1N1CCN(c2ccccc2F)CC1 (centres undefined)	105	102
O=C(Nc1cccc2c1CCCC2)N1CCOc2ccc(Cl)cc21	101	104
Cn1c(SCc2ccccc2Cl)nc2c([nH]c3ccccc32)c1=O	103	113
COc1ccc(C)cc1NC(=O)CCNS(=O)(=O)c1cccc2nonc12	104	110

Exported with two lines to a compound: entries from further up
Order of values: PV pol inh, PV pol inh intensity
O=C(Cn1ccc2cc(S(=O)(=O)N3CCCCC3)ccc21)NCc1cccc(Cl)c1
  99, 92
Clc1ccc(N2CCN(Cc3nnc(-c4ccc5c(c4)OCO5)o3)CC2)cc1
  111, 115
Cc1ccc(C)c(Cn2c3ccccc3c3cnn(CC(=O)NC4CCCCCC4)c(=O)c32)c1
  106, 108
COc1cc(Cl)c(C)cc1NC(=O)c1c(C)oc2nc(C)nc(N3CCCC3)c12
  116, 108
O=C(Nc1ccccc1C(F)(F)F)c1cc2ccccn2n1
  109, 111
COC(=O)c1cc2occc2n1Cc1ccc(F)cc1Cl
  106, 108
COc1ccccc1CNC(=O)Cc1c(C)c2c(cc(C)c3c(C)coc32)oc1=O
  105, 106

Look-ups from the entries so far.
COc1ccc(C)cc1NC(=O)CCNS(=O)(=O)c1cccc2nonc12 in PV pol inh = 104
CCC1CCCCN1S(=O)(=O)c1ccc(N2CCCCS2(=O)=O)cc1 (centres undefined) in PV pol inh = 102

(further entries)
SMILES	PV pol inh	PV pol inh intensity
CCOc1ccc(-c2noc(CSc3nnc(-c4ccccc4)n3-c3ccccc3)n2)cc1	107	114
COc1ccc(Cl)cc1-n1nnc(-c2nsc(NC(=O)c3ccccc3Cl)n2)c1C	109	110
COc1ccccc1CCNC(=O)Cn1ccc2cc(S(=O)(=O)N3CCCCC3)ccc21	104	106
Cc1cccc(OCCSc2nnc(-c3cccs3)o2)c1	108	103
Cc1ccc2nc(COc3ccccc3NC(=O)c3ccccc3F)cc(=O)n2c1	107	105
COc1cc(C(=O)NCC(c2cccnc2)N2CCN(c3ccc(F)cc3)CC2)cc(OC)c1OC (centres undefined)	112	103
Cc1ccc2cccc(NC(=O)c3cccc4c(Cl)cccc34)c2n1	105	106
COc1ccccc1CNC(=O)Cn1c(=O)ccc2cc(S(=O)(=O)N3CCCC3)ccc21	105	109
CCOC(=O)C1=C(C)N=C2SCCC(=O)N2C1c1ccc(OCc2ccccc2)c(OC)c1 (centres undefined)	107	109
Cc1ccc(Nc2c(-c3ccc(N4CCOCC4)cc3)nc3cccc(C)n23)cc1	106	112
Cc1ccc2nc(CN3CCN(S(=O)(=O)c4ccccc4)CC3)oc2c1	105	107
CCOC(=O)c1cc(-c2ccc(F)cc2)n(CCC(=O)NC2CCC(C)CC2)c1C (centres undefined)	98	103
O=C(NC1CCCC1)c1c[nH]c2ccc(S(=O)(=O)Nc3cccc(C(F)(F)F)c3)cc2c1=O	104	104
O=C(NCCc1ccccc1)C(=O)NCC(c1cccnc1)N1CCN(c2ccccc2)CC1 (centres undefined)	109	112
CCc1ccccc1NC(=O)N1CCOc2ccccc21	97	93
CC(=O)Nc1cc(C(=O)NCc2ccc(C)cc2)ccc1S(=O)(=O)c1ccc(Cl)cc1	108	107
CN(C)c1ncc(C(=O)NCc2ccc(Cl)cc2)cn1	111	110
CCS(=O)(=O)c1oc(-c2ccc(F)cc2)nc1S(=O)(=O)c1ccc(Br)cc1	113	114
CC(=O)c1ccc(NC(=O)c2ccc(-c3nc(CSc4ccccc4)c(C)o3)cc2)cc1	103	108
NC(=O)c1cc(S(=O)(=O)N2CCN(c3cccc(C(F)(F)F)c3)CC2)cs1	108	114
Cc1cccc(-c2nc(N3CCN(c4ccc(F)cc4)CC3)c3ccccc3n2)c1	109	109
CCC(Cn1nnc2ccccc2c1=O)NC(=O)Nc1cc(C)cc(C)c1 (centres undefined)	102	102
COc1ccc(-c2nc(C(N)=O)c3c(n2)n(-c2ccccc2OC)c(=O)n3C)c(OC)c1	114	113
COc1ccc(F)cc1S(=O)(=O)Nc1cccc(-c2ccc(N3CCC(C)CC3)nn2)c1	104	99
O=S(=O)(NCCS(=O)(=O)N1CCN(c2ccccc2)CC1)c1ccc(Cl)cc1	109	110

Record cards, as listed above.
`NC(=O)c1cc(S(=O)(=O)N2CCN(c3cccc(C(F)(F)F)c3)CC2)cs1` reads PV pol inh = 108; PV pol inh intensity = 114
`O=C(NCCc1ccccc1)C(=O)NCC(c1cccnc1)N1CCN(c2ccccc2)CC1` (centres undefined) reads PV pol inh = 109; PV pol inh intensity = 112

The list continues:
SMILES	PV pol inh	PV pol inh intensity
Cc1ccc(-c2nnc(Nc3ccc(S(N)(=O)=O)cc3)c3ccccc23)cc1S(=O)(=O)N1CCCCC1	103	103
CCN1CCN(C(=O)Cn2ncc3c4ccccc4n(Cc4c(C)cc(C)cc4C)c3c2=O)CC1	102	102
Cc1ccc(CN2C(=O)C(O)(c3c(C)[nH]c4ccccc34)c3ccccc32)cc1 (centres undefined)	101	106
COc1ccc(C2(CNC(=O)C(=O)Nc3cccc(C(F)(F)F)c3)CCCC2)cc1OC	103	95
CCc1ccc(N=C2NC(=O)CC(C(=O)Nc3ccc(OC)cc3)S2)cc1 (centres undefined)	107	106
Cc1cc(NC(=O)n2ncc3c(C)cccc32)ccc1Br	111	109
Cc1nn(-c2ccc(N3CCOCC3)nn2)c(C)c1CCC(=O)NCc1ccccc1	107	107
CS(=O)(=O)Nc1ccccc1C(=O)OCc1cc(=O)n2nc(C3CCCCC3)sc2n1	108	118
CCOc1ccccc1NC(=O)NC(CC)c1c(-n2cccc2)sc2c1CCN(C)C2 (centres undefined)	113	119
CC(C)OCCCNC(=O)CCCn1c(=O)[nH]c2ccsc2c1=O	103	105
O=C(NCCOCCn1c(=O)oc2ccccc21)Nc1ccc(F)cc1	108	105
COc1ccc(-c2nc3c4cnn(-c5ccccc5F)c4ncn3n2)cc1	113	113
Cc1ccccc1CNC(=O)Cn1ncn2nc(-c3cccs3)cc2c1=O	111	102
CCCCN(C)S(=O)(=O)c1cc(-c2nnc3c4ccccc4c(C)nn23)ccc1C	101	101
CCOc1ccc(CNC(=O)C2CCCN(S(=O)(=O)N(C)c3ccc(F)cc3)C2)cc1OC (centres undefined)	115	111
COc1ccccc1NC(=O)c1sc(-c2ccc(Cl)cc2)cc1N	102	101
Oc1cccc(C(Nc2ccccn2)c2ccc3cccnc3c2O)c1Cl (centres undefined)	118	152
COc1ccc(N2CCN(Cc3nc(-c4ccc(C)cc4)no3)CC2)cc1	106	110
O=S(=O)(Nc1ccc(-c2ccc(N3CCCC3)nn2)cc1)c1ccc(Br)cc1	108	108
Cc1ccc2c(CC(=O)Nc3cc(C(F)(F)F)ccc3Cl)coc2c1C	117	114
CCOc1cc(CNC(=O)c2cc(-c3ccccc3)n[nH]2)cc(OCC)c1OCC	109	106
Cc1ccc(S(=O)(=O)N(CC(=O)NCCc2ccc(Cl)cc2)c2ccccc2C)cc1	103	108
Cc1ccc(CNc2nc3ccc(C)cc3n3nnnc23)cc1	106	107
O=C(Nc1ccc2c(c1)OCO2)c1cc(-c2cccc(Cl)c2)on1	104	108
COCc1c(Br)c(C)nc2sc3c(=O)n(-c4cccc(Br)c4)nnc3c12	104	107

Next part
SMILES	PV pol inh	PV pol inh intensity
Cc1ccc(NC(=O)Cn2nc(-c3ccc(Cl)cc3)c3ccccc3c2=O)cc1	106	104
COc1ccc(-c2cc3nc(C)c(CCC(=O)Nc4ccc(F)cc4F)c(C)n3n2)c(OC)c1	115	116
O=S(=O)(NCCc1nnc2ccc(SCc3c(F)cccc3Cl)nn12)c1ccccc1	103	109
O=C(Nc1nc2c(F)cccc2s1)c1ccc(S(=O)(=O)N2CCCc3ccccc32)cc1	108	117
COCCN1C(=O)c2[nH]nc(-c3c(C)cc(C)cc3O)c2C1c1cccc(O)c1 (centres undefined)	103	109
CCOc1ccc(CCNC(c2cccc(Cl)c2)c2nnc(-c3ccccc3)o2)cc1OCC (centres undefined)	104	108
CCOC(=O)C(Cc1ccccc1)NC(=O)CCc1c(C)nc2nc(C)nn2c1C (centres undefined)	110	111
COc1ccc(Cn2ccc3nc(C)c(C(=O)N4CCN(c5ccccc5)CC4)cc3c2=O)cc1	114	113
